Bioassay records (PubChem BioAssay)
D2 PAM: potentiates the human D2 dopamine receptor allosterically; P14416; DiscoveRx D2 beta-arrestin cells, luminescence, 90 min; 100% = 57 uM dopamine signal; potentiation, % (test concentration not listed); 360,000 compounds, 0.23% hits; active = potentiation of 50% or more; inconclusive = 30% to 50%; inactive = 30% or less;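 further: compound concentration not given in the record; tested on top of an EC20 dose of dopamine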
Target sequence (P14416 whole entry, looked up): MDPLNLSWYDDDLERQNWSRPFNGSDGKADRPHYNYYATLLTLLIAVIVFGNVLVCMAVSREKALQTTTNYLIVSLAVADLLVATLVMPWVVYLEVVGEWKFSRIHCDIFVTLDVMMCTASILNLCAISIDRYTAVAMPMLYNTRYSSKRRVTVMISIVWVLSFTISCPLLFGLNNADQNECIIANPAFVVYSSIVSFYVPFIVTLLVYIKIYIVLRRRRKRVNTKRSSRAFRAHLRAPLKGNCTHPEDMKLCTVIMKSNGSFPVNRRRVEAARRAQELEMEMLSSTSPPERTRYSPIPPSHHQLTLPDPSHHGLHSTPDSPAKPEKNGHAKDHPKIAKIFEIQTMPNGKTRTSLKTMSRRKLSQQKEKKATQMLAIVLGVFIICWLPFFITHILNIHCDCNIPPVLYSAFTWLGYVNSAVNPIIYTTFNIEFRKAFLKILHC
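PathHunter beta-arrestin assay in DiscoveRx D2 cells. Compounds were added with an EC20 of dopamine (50 nM final) for 90 min at 37 deg C. Luminescence was read 1 h after detection reagent, with 57 uM dopamine as the EC100 control.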
PINK1 modulator: changes PINK1 expression | PINK1 immunofluorescence, high-content cytometry, 24 h | Potency, µM (doses to about 76.6 µM), for inactives: top-dose activation (PINK1 increase), actives largely listed as activators | 410,000 compounds, 0.2% hits | AID 624263; active = well fitted activation curve with a large enough effect; inconclusive = small, poorly fitted or top-dose-only effect; inactive = flat fitted curve, though single readings scatter; cell line not stated here;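 further: potency means the concentration at half of the fitted maximal effect; % of control where 0% means no effect; nearly all actives have a fitted effect of over 65% in size; a mitochondrial uncoupler was the plate control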
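Fluorescence from anti-PINK1 antibody, together with nuclear and cell stains, was scanned on a laser-scanning cytometer. Before staining, stable-line cells were incubated 24 hours with compounds at 5 concentrations; primary antibody 12 h at 10 degrees C.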
D2 agonist: human D2 receptor agonism in beta-arrestin assay. activation, % (concentration not given with the values). 360,000 compounds, 0.084% hits. P14416. DiscoveRx PathHunter D2 beta-arrestin, luminescence, 90 min; 100% = 57 uM dopamine signal; in the data active = activation above about 40%; inconclusive = about 15% to 40%; inactive = below about 15%; further: the text of the record calls up to 30% inactive
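Agonist mode: compounds alone added to overnight-plated D2 PathHunter cells for 90 min at 37 C, with 57 uM final dopamine (EC100) defining full response. Beta-arrestin recruitment detected by chemiluminescent reagent, read after 1 h at ambient temperature.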
CtBP-E1A blk: inhibitors of CtBP/E1A interaction; 340,000 compounds, 0.49% hits; AID 651724; AlphaScreen GST-E1A/His-CtBP binding, 1536-well; stronger effect = lower value; control for the full effect not named in the record; activity change, % (concentration not given with the values); in the data active means activity change below about -65%; inconclusive means about -30% to -65%; inactive means above about -30%; further: on the % scale 0 is the no-effect control and ±100 the full control effect
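Homogeneous bead-based format: GST-tagged E1A captured on glutathione donor beads, His-tagged CtBP on nickel acceptor beads; compounds precede bead addition by 2 h at 37 °C.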
TRPML1 agonist: activates the human TRPML1 channel; 410,000 compounds, 0.12% hits; activation, % (test concentration not listed); TRPML1-expressing cells, Ca2+ dye fluorescence, FDSS; host cell line not named in the record; reference of the full effect not given here; AID 624414; in the data active = activation above about 50%; inconclusive = about 30% to 50%; inactive = below about 30%; further: 0% is about no effect; the text of the record puts the active cut at 80%
Target sequence (Q9GZU1 whole entry, looked up): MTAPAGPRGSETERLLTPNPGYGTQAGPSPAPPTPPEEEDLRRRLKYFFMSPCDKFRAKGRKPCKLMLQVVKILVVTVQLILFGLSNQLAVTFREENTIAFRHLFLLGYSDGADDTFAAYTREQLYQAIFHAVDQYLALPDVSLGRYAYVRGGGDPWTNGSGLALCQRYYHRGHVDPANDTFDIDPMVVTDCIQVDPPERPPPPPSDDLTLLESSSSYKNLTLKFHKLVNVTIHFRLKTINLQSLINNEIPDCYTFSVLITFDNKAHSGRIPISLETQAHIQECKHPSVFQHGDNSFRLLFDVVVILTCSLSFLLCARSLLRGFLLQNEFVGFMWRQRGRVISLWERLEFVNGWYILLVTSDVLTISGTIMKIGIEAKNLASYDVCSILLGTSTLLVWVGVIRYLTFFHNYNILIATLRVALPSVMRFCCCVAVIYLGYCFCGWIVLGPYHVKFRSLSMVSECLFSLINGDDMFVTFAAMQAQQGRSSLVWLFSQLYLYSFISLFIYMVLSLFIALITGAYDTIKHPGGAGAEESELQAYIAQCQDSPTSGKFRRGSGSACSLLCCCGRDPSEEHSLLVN
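In this qHTS format, compounds were pin-transferred onto Ca8-dye-loaded TRPML1-DL cells induced with Tet overnight, and intracellular Ca2+ fluorescence was recorded kinetically for 110 s after a 10 s baseline. A subsequent 4uM final 54-4 (EC80) addition followed by a second 110 s read served as the antagonist phase.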
Six1-Eya2 inh: Six1/Eya2 interaction inhibition; 360,000 compounds, 0.56% hits; AlphaScreen GST-Six1/His-Eya2 binding, biochemical; stronger effect = lower value; control for the full effect not named in the record; activity change, % (concentration not given with the values); Q15475+O00167; AID 651725; in the data active = activity change below about -65%; inconclusive = about -30% to -65%; inactive = above about -30%; further: on the % scale 0 is the no-effect control and ±100 the full control effect
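GST-Six1 + His-Eya2 (5X stock: 250/500 nM); Tris pH 8.0, 300 mM NaCl, 0.05% BSA, 0.02% Tween 20; GSH donor/Ni acceptor beads; 1 h 37 °C dark; AlphaScreen readout.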
* marks the source's active call; other numbers are inactive results; ? = inconclusive; . = not tested or not shown; [ ] = remark or other dose.

The line under a structure holds: D2 PAM	PINK1 modulator	D2 agonist	CtBP-E1A blk	TRPML1 agonist	Six1-Eya2 inh
> CN(C(=O)Cn1nnc2ccccc2c1=O)C1CCCCC1
 : -3.5	2.2%	0.1	0.0	0.1	-4.6
> COC(=O)c1ccc(NC(=O)C(=O)c2cccn2C)cc1
 : 6.1	4.5%	7.9	.	1.1	-1.0
> C=CCn1c(SCC(=O)N2CCOCC2)nnc1C(C)NC(=O)c1ccccc1 (stereo not drawn)
 : -12.5	0.3%	-2.5	-6.9	0.6	3.5
> CCN1CCN(C(=O)C2CCC(=O)N(Cc3cccc(C(F)(F)F)c3)C2)CC1 (stereo not drawn)
 : -1.4	-1.0%	-4.7	2.2	0.3	3.0
> Cc1ccc(NC(=O)CN(C)C(=O)c2cccnc2Nc2cccc(C(F)(F)F)c2)cc1
 : 2.5	5.9%	3.3	2.6	-0.3	2.3
> CCn1c(SCC(=O)O)nnc1-c1ccccc1OC
 : -1.6	-0.8%	1.1	0.0	0.6	4.7
> Cc1ccc2nc(SCC(=O)c3ccc4c(c3)NC(=O)CO4)[nH]c2c1
 : 4.6	11.0%	9.4	0.4	0.6	-0.3
> O=C(c1ccco1)N1CCC(c2nc3c(nnn3Cc3ccccc3Cl)c(=O)[nH]2)CC1
 : 4.5	-1.2%	2.5	-0.8	2.3	-9.7
> Cc1ccc2c(c1)/C(=C/c1ccccc1F)C(=O)N2
 : -11.1	5.8%	-3.0	.	-0.2	-3.6
> COc1ccc(OC)c(S(=O)(=O)NC2CC(=O)N(c3cccc(F)c3)C2)c1 (stereo not drawn)
 : 0.2	0.2%	-2.8	4.3	0.2	-5.3
> CN1CCN(C(=O)c2ccc(COc3ccc(C(C)(C)C)cc3)o2)CC1
 : -25.0	-1.7%	-3.6	-1.3	-1.1	-11.6
> COC(=O)Cn1c(N2CCCC2)nc2c1c(=O)n(C)c(=O)n2C
 : -2.4	-1.1%	-4.0	7.0	0.1	-2.0
> CCOC(=O)C1=CCN(S(=O)(=O)c2ccccc2Cl)C1c1cccc(Br)c1 (stereo not drawn)
 : -3.5	6.5%	-5.3	8.3	6.1	3.1
> COc1ccc(-c2c(N)cnc(C(=O)O)c2C)c(OCc2ccccc2)c1OC
 : -14.4	-0.5%	0.1	-7.8	-0.3	-82.5*
> C#CCOc1ccc(OC)cc1C(c1c(C)[nH][nH]c1=O)c1c(C)[nH][nH]c1=O
 : -3.3	1.5%	0.2	-7.2	0.1	-2.1
> Cc1cc(F)ccc1S(=O)(=O)Nc1ccccc1C(=O)Nc1ccccc1N1CCOCC1
 : -1.7	0.6%	3.8	-6.9	-0.4	5.5
> C[C@H]1CN([C@@H](C)CO)C(=O)c2cc(Br)cnc2O[C@@H]1CN(C)C(=O)NC1CCCCC1
 : 3.7	2.2%	-3.6	-0.9	-0.3	-1.1
> O=c1[nH]c(=O)n2ncnc2[nH]1
 : -12.5	2.1%	-2.7	-12.4	-0.6	5.1
> CC1(C(=O)NS(=O)(=O)c2cccc(Cl)c2)CCN1C(=O)CCc1ccc(Cl)cc1Cl (stereo not drawn)
 : -7.0	0.5%	-5.8	1.9	-1.1	16.7
> CCn1c(SCC(=O)Nc2ccc(F)cc2)nnc1-c1cnccn1
 : -26.2	3.4%	-2.7	-12.2	-0.2	8.5
> O=C(NC(=S)NCc1cccnc1)c1cc2ccccc2o1
 : -1.2	-2.3%	-1.4	3.1	3.0	-0.5
> CC(=O)N(C)c1ccc(OCC(O)Cn2c(C)nc3ccccc32)cc1 (stereo not drawn)
 : -7.2	-0.5%	-4.7	4.8	-0.8	6.2
> COc1ccc(C(c2nnnn2Cc2cccs2)N2CCC(C(N)=O)CC2)c(OC)c1 (stereo not drawn)
 : -1.4	-0.7%	-2.5	5.3	-0.2	3.9
> C/C(=N\NC(=O)c1cc(-c2cccc(OC(C)C)c2)nc2ccccc12)c1cccnc1
 : -2.9	2.2%	1.2	0.1	0.5	-0.3
> O=C(/C=C/c1ccccc1Cl)c1cccnc1
 : -4.4	5.5%	3.8	-4.9	0.7	4.9
> COc1ccc2[nH]c(C)c(CCN3C(=O)C4C5C=CC(C5)C4C3=O)c2c1 (stereo not drawn)
 : -0.2	3.0%	5.6	-7.5	0.2	-13.4
> COC(=O)c1sc(-c2ccc(C(C)(C)C)cc2)cc1NC(=O)CCC(=O)O
 : -1.2	1.1%	-7.4	0.0	0.2	-10.7
> COc1ccc(NC(=O)C2CCN(C(=O)c3cccs3)CC2)cc1
 : -6.7	2.6%	-3.9	-7.4	-0.7	-13.7
> CCCCCCCCC(=O)O
 : -10.0	-0.2%	2.1	4.3	.	1.9
> COc1cccc(-c2cc3nc(NCc4ccccc4OC)n(C)c(=O)c3s2)c1
 : -3.2	6.9%	3.9	3.3	-0.6	5.2
> O=[N+]([O-])c1ccccc1CNCCO
 : -3.5	-0.2%	0.9	1.9	-0.6	3.1
> COc1ccc(Cc2nc3ccc(C(=O)NC4CCOC4)cc3o2)cc1 (stereo not drawn)
 : -2.2	0.7%	0.5	3.2	-0.5	6.7
> CCOC(=O)CNc1nc(Cl)c(C#N)s1
 : -1.2	0.3%	-2.6	15.0	-0.2	7.6
> O=S(=O)(NC1=NCCCCC1)c1cccs1
 : 2.9	1.0%[38.3 µM]	2.1	49.9	0.8	25.6
> O=C(CCN1C(=O)c2ccccc2C1=O)NCc1ccc(Cl)cc1
 : -0.8	1.0%	-3.4	0.0	0.4	-4.3
> CCOc1ccccc1NC(=O)NC1(C(=O)N2CCN3CCCC3C2)CCCCC1 (stereo not drawn)
 : -11.5	-2.8%	-3.5	-2.0	2.6	1.0
> CCCCn1c(N)c(Sc2ccc(C)cc2)c(=O)[nH]c1=O
 : -0.8	0.2%	-3.8	1.2	-0.3	-1.7
> CCN(CC)C(=O)C(=O)Nc1ccc(OC)c(Cl)c1
 : 3.9	-0.2%	-1.8	7.9	-0.4	5.5
> Cc1cccc(N(Cc2ccccc2)C(=O)c2cccc(S(=O)(=O)N3CC(C)OC(C)C3)c2)c1 (stereo not drawn)
 : 13.5	4.3%	-2.4	4.1	0.5	-7.1
> CCOc1ccc(C=NNc2ccc(S(=O)(=O)Nc3ccccc3C(=O)O)cc2[N+](=O)[O-])cc1OC
 : 2.3	1.0%	-2.6	-3.0	1.9	-12.0
> CC(=O)Nc1ccc(NC(=O)c2cccc3c2-c2ccccc2C3=O)cc1
 : -5.7	7.6%	-2.6	.	0.8	-6.7
> CCOc1ccccc1NC(=O)Nc1cc(S(=O)(=O)N(C)C)ccc1C
 : -21.6	8.0%	-4.3	-5.2	0.9	4.6
> C/C(=N\NC(=O)c1cccc(S(=O)(=O)N2CCCC2)c1)c1ccc(C)cc1
 : -7.7	0.2%	-2.0	-4.8	-0.8	-0.3
> O=S(=O)(CCc1nc2ccccc2s1)c1ccc2ccccc2c1
 : -16.7	2.8%	-1.6	7.3	1.1	1.7
> COc1ccc(C(=O)Nc2ccccc2C(=O)N/N=C/c2ccncc2)cc1OC
 : -0.3	0.7%	-4.7	-4.6	1.6	-4.8
> O=C(Nc1cccnc1)c1c(O)c2cccc3c2n(c1=O)CC3
 : -1.3	-0.5%	-1.0	10.2	-0.8	1.5
> O=C1c2ccccc2C(=O)N1CCCCN(C(=O)c1cccc([N+](=O)[O-])c1)c1ccc(Cl)cc1
 : -0.1	-2.7%[38.3 µM]	-0.9	1.3	0.8	-18.1
> COc1cc([N+](=O)[O-])ccc1NC(=O)CN1CCCC1
 : -4.5	1.9%	-1.7	-2.0	0.0	0.7
> Cc1cc(C)cc(Oc2cc(NC(=O)c3cn(C)nc3C)cc([N+](=O)[O-])c2)c1
 : 10.4	?	4.6	-9.9	1.0	-3.1
> COc1ccc(OCC(O)CNC(=O)c2cccs2)cc1 (stereo not drawn)
 : -8.4	2.5%	1.0	8.2	-0.3	0.2

New compounds follow
The line under a structure holds: D2 PAM	PINK1 modulator	D2 agonist	CtBP-E1A blk	TRPML1 agonist	Six1-Eya2 inh
> O=C(Cn1cc2c(n1)CCCCC2)Nc1c(F)cc(F)cc1Br
 : -3.0	5.9%	1.6	6.1	1.0	3.1
> Cc1ccc(S(=O)(=O)N2CCCC2CO)cc1 (stereo not drawn)
 : 15.2	.	-1.3	5.7	-0.1	0.3
> S=C(NC1CCCCC1)N(CCc1nc2ccccc2[nH]1)C1CCCC1
 : -27.3	-0.5%	-1.9	-3.8	1.2	0.5
> Cc1ccc(S(=O)(=O)NCC(=O)NCc2ccncc2)cc1
 : 2.9	2.8%	1.5	4.6	-0.6	10.5
> O=C(NCCN1CCCC1)C1CCN(S(=O)(=O)N2CCC3(CC2)OCCO3)CC1
 : -0.1	1.5%[38.3 µM]	1.7	8.8	0.5	2.0
> CCCCCCSc1ccc([C@@H]2[C@H]3C(=O)N(CC)C(=O)[C@H]3[C@]3(C(=O)OC)CCCCN23)cc1OC
 : -3.2	6.0%	-6.6	-0.8	-0.3	-16.7
> CCOC(=O)CNc1c(-c2ccc(OC)cc2)nc2ccc(Cl)cn12
 : -2.0	-4.9%[38.3 µM]	0.9	3.3	1.2	-0.5
> COc1ccc2c(c1OC)C(=O)N1C2SC(C)(C)[C@H]1C(=O)NC1CCCC1 (stereo partly drawn)
 : -21.7	1.0%	-4.4	-9.3	.	1.7
> COc1ccc(OC)c(/C=N/NC(=S)NCCc2ccccc2)c1
 : -21.9	-1.0%	6.0	-13.8	3.5	-12.8
> COc1ccc(-n2nc(C(=O)NCC(=O)N3CCCCCC3)c3ccccc3c2=O)cc1OC
 : 5.3	-1.8%	2.8	1.6	0.7	3.2
> COC(=O)Cn1c(=O)c2c(nc3n2CCCN3Cc2ccccc2)n(C)c1=O
 : -4.2	2.1%	-4.8	-3.8	1.0	-1.5
> CCn1ncc(C2=NOC(C(=O)NCc3ccc(OC)cc3)C2)c1C (stereo not drawn)
 : -7.4	?	1.6	7.8	-0.6	0.3
> COc1cccc(-n2c(-c3ccccc3)c[nH]c2=S)c1
 : -1.6	-0.1%	5.7	-11.7	2.1	-11.3
> CCOC(=O)Nc1nnc(-c2ccccc2OC)s1
 : 1.9	1.8%	-5.7	-4.9	1.2	-7.6
> CC(C)C(=O)Nc1ccc(C(=O)NN2C(=O)c3ccccc3C2=O)cc1
 : 1.3	0.9%	-4.0	0.0	0.3	3.1
> Cn1c(C(=O)N2CCCC2)cc2c(=O)n(C)c3ccccc3c21
 : 4.8	-4.4%	0.3	-5.2	1.8	4.0
> CC(C)c1onc(C(=O)NCc2ccc(Cl)cc2)c1[N+](=O)[O-]
 : -19.7	8.5%	-4.2	0.5	1.3	-1.8
> CCOC(=O)c1ccc(NS(=O)(=O)c2cc(-c3nnnn3C(C)C)ccc2OC)cc1
 : -4.1	0.4%	?	-4.8	-0.7	-0.5
> COc1ccc(CC(=O)OCC(=O)NC(=O)NC2CCCCC2)cc1
 : -3.4	0.4%	-5.8	-2.6	4.7	2.2
> O=C(Nc1ccc(F)cc1)C1CC(=O)n2cnnc2N1 (stereo not drawn)
 : -3.6	1.0%	-3.5	5.4	-0.1	-5.0
> COC(=O)CCC(=O)c1oc2ccc(Br)cc2c1N
 : 8.4	-2.7%[38.3 µM]	-0.4	-6.6	0.6	-1.6
> O=C(Nc1cccc(-c2ccc(N3CCCCC3)nn2)c1)c1ccco1
 : -19.3	4.5%	-8.5	-0.3	-0.6	-6.9

No enrichment for hits; overall some 1.3% were active at least once.
